SARS PLP yeast: SARS-CoV PLP inhibition in yeast. actives 0.19% (n = 330,000). AID 485353. Potency, µM (top dose mostly 32.9 µM), for inactives: at the highest dose activity, positive = growth rescue. S. cerevisiae expressing SARS-CoV PLpro, growth rescue; control for the full effect not named in the record; note: 0% is about no effect; nearly all actives have a fitted effect of over 55% in size; growth read by luminescence after 48 h
NS1 inh: inhibitors of influenza NS1 protein function. Potency, µM (series often up to 46.1 µM), for inactives: at the highest dose activity, positive = more growth. S. cerevisiae slowed by influenza A NS1, growth recovery by OD600. AID 2326. actives 0.4% (n = 270,000); note: actives are rising curves; nearly all actives have a fitted effect of over 50% in size
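S. cerevisiae expressing influenza A NS1, grown in glucose, washed, then diluted 1:100 into pH 6.0 -URA galactose medium with 23 nl compound. Growth recovery read as OD600; NS1-free strain serves as control.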
Marburg entry inh: inhibitors of Marburg virus binding or cell entry. actives 1.8% (n = 300,000). Marburg virus pseudotyped entry inhibition, cell reporter; control for the full effect not named in the record; about a third of the inactives were read at about 46 µM. Potency, µM (series often up to 37.8 µM), for the others: at the top dose activity change, negative = inhibition, actives largely listed as inhibitors. AID 540276; active = well fitted inhibition curve with a large enough effect; inconclusive = small, poorly fitted or top-dose-only effect, or effect the other way; inactive = flat fitted curve, though single readings scatter; tested in HEK293 cells; about a fifth of its hits are not listed in these tables; note: % is set by controls: 0 for no effect and ±100 for the full control effect; luciferase read-out
Cruzain inh noDet: blocks cruzain activity in detergent-free assay; P25779; purified cruzain, Z-FR-AMC fluorescence, no detergent; Potency, µM, for the others: max response, negative = inhibition, hits mostly inhibitors; actives 2.3% (n = 200,000); AID 1476; active = well fitted curve in the direction sought with a large enough effect; inconclusive = small, poorly fitted or top-dose-only effect, or another doubt; inactive = no such curve, though single readings can be large; an effect the other way counts as inactive or inconclusive;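 note: plate controls were enzyme without inhibitor for no effect and buffer without enzyme for full effect; nearly all actives have a fitted effect of over 40% in size; top concentration of the series not given in the record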
Target sequence (P25779 123-467 limits assumed): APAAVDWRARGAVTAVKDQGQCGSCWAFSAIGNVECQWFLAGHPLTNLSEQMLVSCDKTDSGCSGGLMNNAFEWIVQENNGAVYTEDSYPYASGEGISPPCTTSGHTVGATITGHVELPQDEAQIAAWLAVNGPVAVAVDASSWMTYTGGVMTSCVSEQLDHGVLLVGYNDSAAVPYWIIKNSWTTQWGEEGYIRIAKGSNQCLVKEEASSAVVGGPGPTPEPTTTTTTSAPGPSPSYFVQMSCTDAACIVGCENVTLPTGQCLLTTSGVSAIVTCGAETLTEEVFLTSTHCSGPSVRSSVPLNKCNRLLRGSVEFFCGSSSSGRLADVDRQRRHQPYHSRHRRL
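Purified cruzain at 1.5 nM, pre-incubated 15 min with compound at room temperature in 100 mM sodium acetate pH 5.5, 5 mM DTT, 0.00005% Triton X-100. Reaction started with 2 uM Z-FR-AMC; AMC fluorescence increase over 60 s gives rate.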
LASV entry inh: Lassa virus entry inhibition. AID 540256. actives 1.2% (n = 300,000). Potency, µM (top dose mostly 37.9 µM), for inactives: at the top dose activity change, negative = inhibition, usual class: inhibitors. Lassa virus pseudotype entry inhibition, cell reporter; control for the full effect not named in the record; active means well fitted inhibition curve with a large enough effect; inconclusive means small, poorly fitted or top-dose-only effect, or effect the other way; inactive means flat fitted curve, though single readings scatter; tested in HEK293 cells; note: % is set by controls: 0 for no effect and ±100 for the full control effect; nearly all actives have a fitted effect of over 50% in size; luciferase read-out
RE007 growth inh: less growth of the S. pombe RE007 Vpr strain. S. pombe RE007 Vpr strain, BacTiter-Glo ATP luminescence, 24 h; control for the full effect not named in the record. Potency, µM (highest dose often 92.2 µM), for inactives: at the highest dose activity change, negative = less growth. actives 0.21% (n = 360,000); active = well fitted falling curve with a large enough effect; inconclusive = small, poorly fitted or top-dose-only effect; inactive = no such curve, though single readings can be large or run the other way;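 note: % is set by controls: 0 for no effect and ±100 for the full control effect; nearly all actives have a fitted effect of over 50% in size; the assay follows cell death caused by Vpr and the record does not say whether a fall means rescue or toxicity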
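Fission yeast RE007 carrying one integrated HIV-1 vpr copy, seeded at OD 0.01 in PMG+AL medium with 23 nL pinned compound. Grown 24 h at 30 degrees; viability read by BacTiter-Glo luminescence after 5 min.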
2A StopGo: lowers the luciferase signal of an FMDV 2A StopGo reporter | human cells with a luciferase reporter of 2A StopGo recoding; control for the full effect not named in the record | Potency, µM (doses to about 57.9 µM), inactives show at the highest dose signal change, negative = less light | actives 1.2% (n = 410,000); active = well fitted falling curve with a large enough effect; inconclusive = small, poorly fitted or top-dose-only effect; inactive = no such curve, though single readings can be large or run the other way; tested in HEK293T cells; note: % is set by controls: 0 for no effect and ±100 for the full control effect; nearly all actives have a fitted effect of over 45% in size; luciferase light after 4 h
Cruzain inh Det: blocks cruzain activity in presence of Triton detergent; purified cruzain, Z-FR-AMC fluorescence, 0.01% Triton; actives 0.43% (n = 200,000); Potency, µM, without a hit: max response, negative = inhibition, hits mostly inhibitors; P25779; active = well fitted curve in the direction sought with a large enough effect; inconclusive = small, poorly fitted or top-dose-only effect, or another doubt; inactive = no such curve, though single readings can be large; an effect the other way counts as inactive or inconclusive;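 note: plate controls were neutral wells for no effect and buffer without enzyme for full effect; nearly all actives have a fitted effect of over 40% in size; top concentration of the series not given in the record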
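Steps: dispense cruzain (1.5 nM final) in acetate buffer pH 5.5 with DTT and 0.01% Triton X-100; pin-transfer compounds; incubate 15 min RT; add Z-FR-AMC (2 uM final); read fluorescence every 30 s, using the 60 s intensity change.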
The depositor's hits bear a star; ? = inconclusive; nt = not tested or not shown; [ ] = remark or other dose. Unless noted, calls come from the whole dose curve; as a rule, active means well fitted rising curve with a large enough effect; inconclusive means small, poorly fitted or top-dose-only effect; inactive means no such curve, though single readings can be large or run the other way. Potency is the fitted concentration of half-maximal effect.

SMILES	SARS PLP yeast	NS1 inh	Marburg entry inh	Cruzain inh noDet	LASV entry inh	RE007 growth inh	2A StopGo	Cruzain inh Det
COc1cc(C)ccc1OCc1cc(C(=O)NC(C)Cn2cncn2)no1 (stereo not drawn)	-3%	-5%	-2%	nt	?	-8%	55%[activator]	nt
O=C(Cn1cc(C(F)(F)F)ccc1=O)N1CCCc2ccccc21	-1%	nt	6%	nt	?	10%	-8%	nt
Cc1ccc(S(=O)(=O)Cc2ccc(C(=O)N3CCN(Cc4ccccc4)CC3)o2)cc1	-8%	?	3%	-8%	nt	nt	nt	0.6%
NC(=O)C1CCN(CC(O)CSc2ccccc2)CC1 (stereo not drawn)	1%	-1%	nt	nt	nt	11%	5%	nt
Cc1occc1-c1nnc(SCC(=O)N2CCOCC2)n1Cc1ccco1	2%	-6%	-9%[46.1 µM]	-1%	0%	12%	?	3.6%
COc1ccccc1OCc1nc(Cc2ccc(Cl)cc2)no1	-2%	-71%	2%	7%	-7%	-12%	1%	2.7%
CC1=NNC(=O)C1CC(=O)N/N=C/C=C/c1ccccc1 (stereo not drawn)	-6%	10%	-21%[46.1 µM]	nt	6%[46.1 µM]	-9%	0%	nt
Cc1ccccc1OCCC(=O)N1CCN(S(=O)(=O)c2ccccc2F)CC1	-6%	-10%	nt	nt	nt	-2%	-20%	nt
COc1ccc(C)cc1NC(=O)CN1CCN(c2ccccn2)CC1	0%	-30%	?	nt	28%[46.1 µM]	-19%	-11%	nt
COC(=O)C(C)N=Cc1ccccc1 (stereo not drawn)	-1%	nt	-2%[46.1 µM]	nt	?	2%	-1%	nt
Cc1ccc(C(=O)N/C(=C\c2cccc([N+](=O)[O-])c2)C(=O)OCN2C(=O)c3ccccc3C2=O)cc1	14%	30%	?	16µM*	10%	0%	-9%	0.89µM*
O=C(c1cccs1)N1CCCc2cc(NS(=O)(=O)c3ccc(F)cc3)ccc21	nt	nt	nt	8%	?	nt	-19%	-3.9%
CCOc1ccc(NC(=O)CSc2n[nH]c(=O)n2-c2ccccc2)cc1	7%	1%	-4%	-1%	-2%	9%	10%	-1.3%
COc1ccc(NS(=O)(=O)c2cccc(C(=O)O)c2)cc1	3%	-2%	10%	-9%	-1%	14%	nt	-0.9%
COc1cc(NC(=O)C(NS(=O)(=O)c2ccc3c(c2)CCCC(=O)N3)C(C)C)cc(OC)c1 (stereo not drawn)	nt	nt	nt	?	13%[46.1 µM]	nt	16%	0.9%
CCOc1ccc(N2C(=O)CC(N(Cc3ccco3)C(=O)CC)C2=O)cc1 (stereo not drawn)	-1%	-1%	17%	nt	4%	-5%	-17%	nt
CC(=O)N1c2ccccc2C(=O)C1N1CCN(c2ccc(Cl)cc2)CC1 (stereo not drawn)	nt	nt	nt	-12%	-11%[46.1 µM]	nt	-1%	-0.4%
COc1ccc(NC(C)=O)cc1NC(=O)CN1CCN(CC(=O)Nc2ccc(Cl)cc2)CC1	7%	-14%	17%	7%	-5%	-2%	-21%	10%
CCn1c(SCC(=O)Nc2ccc(N3CCOCC3)cc2)nnc1-c1ccncc1	0%	-4%	20%[46.1 µM]	nt	3%[46.1 µM]	-7%	-26%	nt
Cc1ccc(OCC(=O)Nc2ccccc2-c2ccccc2NC(=O)COc2ccc(C)cc2)cc1	10%	-2%	-9%	10%	-3%	-6%	-29%	-4.3%
COc1ccc(NC(=O)c2ccc[n+]([O-])c2)cc1	11%	24%	nt	nt	nt	-13%	-11%	nt
COc1ccc(-c2nc3sc(CCNC(=O)c4ccccc4C)c(C)n3n2)cc1	nt	nt	nt	-6%	-23%[46.1 µM]	nt	-11%	-1.9%
O=S(=O)(c1ccccc1)n1nc(-c2ccc(Cl)cc2)nc1NCc1ccccc1	nt	nt	?	12%	16%[46.1 µM]	nt	25%	-1.5%
O=C1NC(=S)N(C(=O)c2ccc(F)cc2)/C1=C/c1cccnc1	0%	-4%	-24%	nt	?	0%	-5%	nt
Cc1cc(N2CCOCC2)n2cc(-c3ccc(F)cc3)nc2n1	-1%	4%	-10%[46.1 µM]	nt	-3%[46.1 µM]	6%	9%	nt
SMILES	SARS PLP yeast	NS1 inh	Marburg entry inh	Cruzain inh noDet	LASV entry inh	RE007 growth inh	2A StopGo	Cruzain inh Det
O=C(c1cc2c(=O)n3ccccc3nc2s1)N1CCN(Cc2ccccc2)CC1	0%	-2%	16%[46.1 µM]	nt	16%[46.1 µM]	4%	15%	nt
CCc1ccc(CN2CCc3nc(N4CCN(CC)CC4)ncc3C2)cc1	nt	nt	nt	-10%	-17%[46.1 µM]	nt	-24%	-2.0%
Cn1c(N)c(C(=O)COC(=O)C(Cc2ccccc2)NC(=O)c2ccccc2)c(=O)n(C)c1=O (stereo not drawn)	2%	-20%	0%[46.1 µM]	nt	18%	-3%	0%	nt
CCOc1cc(C(C(=O)NCC2CCCO2)N(C(=O)Cn2nnc3ccccc32)c2ccccc2C(C)=O)ccc1O (stereo not drawn)	0%	-6%	-7%[46.1 µM]	nt	?	4%	81%[activator]	nt
Cc1ccc(OC(=O)CCC(=O)Nc2ccc(C)c(C)c2)cc1	nt	nt	11%[46.1 µM]	nt	-5%	-12%	-22%	nt
CCCC(=O)Nc1c(-c2ccccc2Cl)c(=O)c2ccccc2n1C	-4%	2%	nt	nt	nt	-3%	-14%	nt
C=CCNC(=O)/C(C#N)=C\c1cc(Cl)c(OCC)c(OC)c1	0%	-29%	22%	8%	-10%	-3%	?	2.4%
C/C(=N\NC(=O)c1c(-c2ccccc2Cl)noc1C)c1cccc(NC(=O)C(C)C)c1	15%	-16%	-8%	21%	-1%	-3%	-1%	-0.3%
COC(=O)NNC(=O)/C=C/c1ccccc1	4%	11%	?	-6%	3%	7%	26%	-1.1%
CCOC(=O)c1cc(CC)sc1NC(=O)COC	-1%	-2%	0%	9%	22%[14.3 µM]	-14%	3%	-1.6%
O=C(COc1ccccc1Cl)NCCNC(=O)c1ccco1	-9%	8%	?	nt	10%[46.1 µM]	1%	23%	nt
COc1ccc(/C=N/Nc2nc3ccccc3[nH]2)cc1OC	-24%	18%	?	-30%	2%	-5%	-17%	-25%
COC(=O)c1ccc(OCC(O)CN2CCN(C(=O)c3ccco3)CC2)c(OC)c1 (stereo not drawn)	-1%	-3%	?	nt	?	8%	-20%	nt
O=C(NCCCc1ccccc1)c1cc([N+](=O)[O-])ccc1Cl	-1%	0%	nt	nt	nt	-7%	-21%	nt
N#CC1=C(N)N2C(=C(C#N)C1c1cccc(Br)c1)Nc1ccccc12 (stereo not drawn)	-2%	6%	0%[46.1 µM]	-2%	?	-27%	7.9µM*	1.0%
CN(C)S(=O)(=O)c1ccc(C(=O)NCCc2ccco2)cc1	6%	4%	3%	nt	23%	-16%	35%[activator]	nt
COc1ccc(-c2cc(C(=O)O)c3sc(N4CCCCC4)nc3n2)cc1OC	-3%	14%	-27%	15%	5%	-16%	12%	-7.3%
CN(C)c1nc2ccc(OCCN3CCCCC3)cc2s1	0%	-2%	17%	-2%	-3%	-12%	50%[activator]	4.0%
CCSc1nc(-c2ccccc2F)nc2c1Cc1c(CO)cnc(C)c1O2	nt	nt	nt	2%	2%[46.1 µM]	nt	-13%	-0.3%
COC(=O)C(Cc1c[nH]c2ccccc12)NC(=O)COc1ccc(Cl)cc1Cl (stereo not drawn)	nt	nt	nt	4%	-18%[46.1 µM]	nt	1%	-14%
O=C(Cc1ccccc1)NC(=S)Nc1ccc2oc(-c3ccccc3)nc2c1	-8%	1%	nt	?	nt	nt	nt	-3.3%
COc1ccc(O)c(C(=O)c2cnc3nc4ccccc4n3c2)c1	-17%	-10%	?	-3%	1%	-28%	-23%	-11%
Cc1cc(C)n2ncc(C(=O)Nc3cccc(O)c3)c2n1	2%	14%	3%[46.1 µM]	nt	-14%[46.1 µM]	-10%	8%	nt
CCn1c(C(O)c2cc(OC)c(OC)c(OC)c2)nc2ccccc21 (stereo not drawn)	3%	11%	?	nt	?	-13%	?	nt
NC(=O)c1csc(-c2ccc(CO)o2)n1	nt	-3%	nt	5%	nt	3%	6%	1.9%
SMILES	SARS PLP yeast	NS1 inh	Marburg entry inh	Cruzain inh noDet	LASV entry inh	RE007 growth inh	2A StopGo	Cruzain inh Det
COC(=O)c1cccc(C(=O)Nc2ccc(C)cc2Br)n1	-2%	-75%	28%	-2%	22%	?	46%[activator]	1.7%
CCOC(=O)CNC(=O)N1CCCC(C(=O)c2ccccc2SC)C1 (stereo not drawn)	0%	0%	nt	nt	nt	-7%	4%	nt
CCC(CC)c1nnc(NC(=O)C2CC(=O)N(c3ccc4c(c3)OCCO4)C2)s1 (stereo not drawn)	0%	24%	14%	?	-15%	37%	-13%	-1.0%
CC(=O)Nc1cccc(/C(C)=N/NC(=O)c2ccc(Cl)cc2Cl)c1	0%	2%	2%[46.1 µM]	nt	8%[46.1 µM]	-4%	38%[activator]	nt
CC(C)(C)c1ccc(COC(=O)Nc2ccc(F)cc2)cc1	4%	7%	?	?	13%	10%	12%	6.2%
COc1cc(NC(=O)N2CCc3c(sc4c3CCCC4)C2c2ccccc2)cc(OC)c1OC (stereo not drawn)	nt	nt	nt	?	?	nt	-23%	-3.1%
C[C@@]1(C2CCCC2)Cc2cc(OCC(=O)O)c(Cl)c(Cl)c2C1=O	nt	1%	?	8%	?	nt	-11%	-3.7%
Cc1ccc(N(CC(=O)N2CCN(c3cccc(C)c3C)CC2)S(=O)(=O)c2c(C)nn(C)c2C)cc1	nt	nt	?	?	?	nt	9%	-9.0%
Cc1ccc2c([N+](=O)[O-])c(C)ccc2n1	9%	3%	29%	-5%	4%	-17%	-1%	-4.5%
CCOC(=O)C(C)Oc1ccc(OCc2ccccc2)cc1 (stereo not drawn)	-9%	nt	-1%[46.1 µM]	nt	-17%	-6%	12%	nt
CCOC(=O)C1CCCN(C(=O)COC(=O)c2ccc(C#N)cc2)C1 (stereo not drawn)	0%	10%	0%[46.1 µM]	nt	10%	16%	3%	nt
C/C(=N\N=C(N)N)c1ccc(C)c(C)c1	1%	7%	nt	nt	nt	0%	-12%	nt
COC(=O)c1ccccc1-n1cccc1C(=O)NP(=O)(N1CCOCC1)N1CCOCC1	1%	nt	-3%[46.1 µM]	nt	4%	3%	-5%	nt
COc1ccc(NC(=O)c2oc3ccccc3c2NC(=O)C2CCCO2)cc1OC (stereo not drawn)	1%	nt	?	nt	?	3%	20%	nt

Screens: PubChem BioAssay, National Center for Advancing Translational Sciences (NCATS)
